StopGo reporter = FMDV 2A StopGo reporter, luciferase signal; human cells with a luciferase reporter of 2A StopGo recoding; control for the full effect not named in the record; Potency, µM (doses to about 57.9 µM), for the others: top-dose signal change, negative = less light; 1.2% of 410,000 active; AID 1159524; active = well fitted falling curve with a large enough effect; inconclusive = small, poorly fitted or top-dose-only effect; inactive = no such curve, though single readings can be large or run the other way; tested in HEK293T cells; also: % is scaled to controls: 0 for no effect and ±100 for the full control effect; nearly all actives have a fitted effect of over 45% in size; luciferase light after 4 h
Cruzain Triton = blocks cruzain activity in presence of Triton detergent; 0.43% of 200,000 active; P25779; purified cruzain, Z-FR-AMC fluorescence, 0.01% Triton; Potency, µM, inactives show max response, negative = inhibition, hits mostly inhibitors; active = well fitted curve in the direction sought with a large enough effect; inconclusive = small, poorly fitted or top-dose-only effect, or another doubt; inactive = no such curve, though single readings can be large; an effect the other way counts as inactive or inconclusive;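 also: plate controls were neutral wells for no effect and buffer without enzyme for full effect; nearly all actives have a fitted effect of over 40% in size; top concentration of the series not given in the record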
Target sequence (P25779 123-467 limits assumed): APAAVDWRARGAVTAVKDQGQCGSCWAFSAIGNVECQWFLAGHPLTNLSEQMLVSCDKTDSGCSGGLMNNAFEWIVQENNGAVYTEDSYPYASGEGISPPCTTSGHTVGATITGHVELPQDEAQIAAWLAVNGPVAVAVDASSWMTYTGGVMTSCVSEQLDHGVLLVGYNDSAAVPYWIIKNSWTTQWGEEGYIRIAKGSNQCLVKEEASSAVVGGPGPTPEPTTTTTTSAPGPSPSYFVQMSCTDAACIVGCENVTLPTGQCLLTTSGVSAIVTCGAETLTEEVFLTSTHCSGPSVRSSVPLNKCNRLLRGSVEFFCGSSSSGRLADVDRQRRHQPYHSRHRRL
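Z-FR-AMC hydrolysis (2 uM substrate) by cruzain (1.5 nM) monitored kinetically at ex 360/em 450 nm after 15 min room-temperature compound exposure; 0.01% Triton X-100, pH 5.5, 5 mM DTT.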
NS1 inh = blocks influenza NS1 protein function. S. cerevisiae slowed by influenza A NS1, growth recovery by OD600. Potency, µM (top dose mostly 46.1 µM), for inactives: top-dose activity, positive = more growth. 0.4% of 270,000 active. AID 2326; also: actives are rising curves; nearly all actives have a fitted effect of over 50% in size
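A cell-based growth assay was used: compounds that relieve NS1-induced slow growth of budding yeast raise OD600. Assay medium was yeast nitrogen base with ammonium sulphate and -URA supplement, pH 6.0, with 2% galactose.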
Marburg entry inh = blocks Marburg virus binding to or entry into cells; 1.8% of 300,000 active; Potency, µM (titrated, usually from 37.8 µM), for the others: top-dose activity change, negative = inhibition, usual class: inhibitors; Marburg virus pseudotyped entry inhibition, cell reporter; control for the full effect not named in the record; about a third of the inactives were read at about 46 µM; AID 540276; active = well fitted inhibition curve with a large enough effect; inconclusive = small, poorly fitted or top-dose-only effect, or effect the other way; inactive = flat fitted curve, though single readings scatter; tested in HEK293 cells; about a fifth of its hits are not listed in these tables; also: % is scaled to controls: 0 for no effect and ±100 for the full control effect; luciferase read-out
Cruzain noTriton = blocks cruzain activity in detergent-free assay; P25779; purified cruzain, Z-FR-AMC fluorescence, no detergent; Potency, µM, for inactives: max response, negative = inhibition, actives largely listed as inhibitors; 2.3% of 200,000 active; AID 1476; active = well fitted curve in the direction sought with a large enough effect; inconclusive = small, poorly fitted or top-dose-only effect, or another doubt; inactive = no such curve, though single readings can be large; an effect the other way counts as inactive or inconclusive;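 also: plate controls were enzyme without inhibitor for no effect and buffer without enzyme for full effect; nearly all actives have a fitted effect of over 40% in size; top concentration of the series not given in the record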
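Detergent-free condition (0.00005% Triton X-100) in acetate buffer pH 5.5 with DTT. 1.5 nM enzyme and compound were pre-mixed 15 min, then 2 uM Z-FR-AMC substrate added; reaction progress from fluorescence change between first and third reads (60 s).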
SARS PLP yeast = blocks SARS-CoV papain-like protease in a yeast assay; S. cerevisiae expressing SARS-CoV PLpro, growth rescue; control for the full effect not named in the record; Potency, µM (highest dose often 32.9 µM), for the others: top-dose activity, positive = growth rescue; 0.19% of 330,000 active; also: 0% is about no effect; nearly all actives have a fitted effect of over 55% in size; growth read by luminescence after 48 h
RE007 growth inh = less growth of the S. pombe RE007 Vpr strain | S. pombe RE007 Vpr strain, BacTiter-Glo ATP luminescence, 24 h; control for the full effect not named in the record | Potency, µM (doses to about 92.2 µM), for the others: top-dose activity change, negative = less growth | 0.21% of 360,000 active; active = well fitted falling curve with a large enough effect; inconclusive = small, poorly fitted or top-dose-only effect; inactive = no such curve, though single readings can be large or run the other way;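 also: % is scaled to controls: 0 for no effect and ±100 for the full control effect; nearly all actives have a fitted effect of over 50% in size; the assay follows cell death caused by Vpr and the record does not say whether a fall means rescue or toxicity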
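Fission yeast RE007 carrying one integrated HIV-1 vpr copy, seeded at OD 0.01 in PMG+AL medium with 23 nL pinned compound. Grown 24 h at 30 degrees; viability read by BacTiter-Glo luminescence after 5 min.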
Lassa entry inh = inhibitors of Lassa virus binding or cell entry | Lassa virus pseudotype entry inhibition, cell reporter; control for the full effect not named in the record | Potency, µM (titrated, usually from 37.9 µM), without a hit: top-dose activity change, negative = inhibition, most hits filed as inhibitors | 1.2% of 300,000 active | AID 540256; active means well fitted inhibition curve with a large enough effect; inconclusive means small, poorly fitted or top-dose-only effect, or effect the other way; inactive means flat fitted curve, though single readings scatter; tested in HEK293 cells; also: % is scaled to controls: 0 for no effect and ±100 for the full control effect; nearly all actives have a fitted effect of over 50% in size; luciferase read-out
* = called active by the depositor; [ ] = another dose, or the depositor's remark. Unless noted, calls follow the shape of the dose curve; as a rule, active means well fitted rising curve with a large enough effect; inconclusive means small, poorly fitted or top-dose-only effect; inactive means no such curve, though single readings can be large or run the other way. Potency is read from the fitted curve at half-maximal effect.

Screening COc1ccc(/C=C/C(=O)Nc2cccc(S(=O)(=O)N3CCOCC3)c2)cc1OC returned StopGo reporter inconclusive, Marburg entry inh inconclusive, SARS PLP yeast 1%, RE007 growth inh 2% and Lassa entry inh inconclusive.
`CCOc1cccc2sc(NC(=O)c3ccc(S(=O)(=O)N4CCCCC4)cc3)nc12` gave StopGo reporter inconclusive, Cruzain Triton -1.1%, Cruzain noTriton 5% and Lassa entry inh 17%[46.1 µM].
`COc1ccc(C(=O)NC2CCN(CC(=O)NCc3ccccc3)CC2)cc1` gave StopGo reporter 7%, NS1 inh -1%, Marburg entry inh -12%[46.1 µM], SARS PLP yeast -2% and RE007 growth inh -9%.
For S=C(NCc1ccco1)Nc1ccc(Cl)cc1Cl the results were StopGo reporter 42%[activator], Cruzain Triton -4.4%, NS1 inh -5%, Marburg entry inh 6%, Cruzain noTriton -10%, SARS PLP yeast inconclusive, RE007 growth inh -9% and Lassa entry inh -1%.
For CC(C)NC(=O)c1ccc2c(c1)N(CC(=O)Nc1ccccc1F)C(=O)C(C)(C)O2 the results were StopGo reporter 10%, NS1 inh 4%, Marburg entry inh 0%, SARS PLP yeast 1%, RE007 growth inh 5% and Lassa entry inh inconclusive.
COc1cc(/C=N/n2cnnc2)ccc1OCc1ccc(C)cc1 was read as StopGo reporter 20%, Cruzain Triton -15%, NS1 inh 4%, Marburg entry inh 14%, Cruzain noTriton 2%, SARS PLP yeast 2%, RE007 growth inh 14% and Lassa entry inh inconclusive.
For C/C(=N\NC(=O)C(C)Nc1cccc(Cl)c1)c1ccc([N+](=O)[O-])cc1 (stereo not given) the results were StopGo reporter -11%, Cruzain Triton -7.7%, NS1 inh 3%, Marburg entry inh inconclusive, Cruzain noTriton -15%, SARS PLP yeast -16%, RE007 growth inh -26% and Lassa entry inh inconclusive.
Screening O=C(CSc1nnc(Cc2ccccc2)o1)N1CCCC1 returned StopGo reporter 19%, NS1 inh -1%, SARS PLP yeast 2% and RE007 growth inh -8%.
Screening O=C(COC(=O)c1ccccc1[N+](=O)[O-])Nc1nnc(-c2ccccc2)o1 returned StopGo reporter 10%, Marburg entry inh -12%[46.1 µM], SARS PLP yeast -5%, RE007 growth inh 0% and Lassa entry inh 18%.
`CCc1ccc(CN(C)C(=O)C2CCC(=O)N(CCCN3CCCC3=O)C2)cc1` (stereo not given) gave StopGo reporter -13%, NS1 inh -1%, Marburg entry inh -3%, SARS PLP yeast -5%, RE007 growth inh -30% and Lassa entry inh 15%.
Screening Cc1nn(CC(=O)Nc2nnc(C(C)C)s2)c(=O)c2ccccc12 returned StopGo reporter -19%, NS1 inh 7%, SARS PLP yeast 1% and RE007 growth inh -2%.
For Cc1cc(C(=O)N2CCOCC2)n(-c2ccccc2)n1 the results were StopGo reporter 4%, Cruzain Triton 6.9%, NS1 inh 2%, Cruzain noTriton -4%, SARS PLP yeast -3% and RE007 growth inh 11%.
Screening CC(=O)Nc1ccc(NC(=O)C(C)OC(=O)c2oc3ccccc3c2C)cc1 (stereo not given) returned StopGo reporter 1%, Marburg entry inh 1%[46.1 µM], RE007 growth inh -3% and Lassa entry inh inconclusive.
For CCS(=O)(=O)NCC(c1cccnc1)N1CCN(c2ccc(F)cc2)CC1 (stereo not given) the results were StopGo reporter -7%, Cruzain Triton 4.3%, NS1 inh -5%, Marburg entry inh 18%, Cruzain noTriton -3%, SARS PLP yeast -8%, RE007 growth inh 23% and Lassa entry inh 1%.
For S=c1[nH]ncn2c1cc1oc3ccccc3c12 the results were StopGo reporter -7%, Marburg entry inh 5%, SARS PLP yeast -1%, RE007 growth inh 10% and Lassa entry inh inconclusive.
Screening CCCCn1c(SCC(=O)Nc2ccc(F)cc2)nc2c(sc3ccccc32)c1=O returned StopGo reporter 35%[activator], Cruzain Triton 2.0%, Cruzain noTriton 20% and Lassa entry inh 11%[46.1 µM].
Screening O=C(COc1ccc(Br)cc1)OCCN1CCCCC1 returned StopGo reporter -10%, NS1 inh -8%, Marburg entry inh -8%, SARS PLP yeast 5%, RE007 growth inh 2% and Lassa entry inh 21%.
`Cc1ccc(NC(=O)c2cc(C)on2)cc1` gave StopGo reporter 21%, Cruzain Triton 7.5%, NS1 inh -5%, Marburg entry inh inconclusive, Cruzain noTriton -7%, SARS PLP yeast 8%, RE007 growth inh -4% and Lassa entry inh inconclusive.
Screening O=C(NN1CCOCC1)c1cnn2c(C(F)F)cc(-c3ccccc3)nc12 returned StopGo reporter -14%, NS1 inh 6%, SARS PLP yeast -1% and RE007 growth inh 2%.
Screening CCC1(CC)Nc2ccccc2C(=O)N1c1ccc(NC(C)=O)cc1 returned StopGo reporter 23%, Cruzain Triton -4.8%, NS1 inh -6%, Marburg entry inh -29%, Cruzain noTriton 1%, SARS PLP yeast 5%, RE007 growth inh 9% and Lassa entry inh -5%.

Some of these compounds in order of SMILES length, low to high.
Screening O=C(CSc1nnc(Cc2ccccc2)o1)N1CCCC1 returned StopGo reporter 19%, NS1 inh -1%, SARS PLP yeast 2% and RE007 growth inh -8%.
`CCc1ccc(CN(C)C(=O)C2CCC(=O)N(CCCN3CCCC3=O)C2)cc1` (stereo not given) gave StopGo reporter -13%, NS1 inh -1%, Marburg entry inh -3%, SARS PLP yeast -5%, RE007 growth inh -30% and Lassa entry inh 15%.
Screening O=C(COC(=O)c1ccccc1[N+](=O)[O-])Nc1nnc(-c2ccccc2)o1 returned StopGo reporter 10%, Marburg entry inh -12%[46.1 µM], SARS PLP yeast -5%, RE007 growth inh 0% and Lassa entry inh 18%.

More records
`CCSc1nnc(NC(=O)CSc2sc3c(O)cc(=O)[nH]c3c2C#N)s1` gave StopGo reporter 10%, NS1 inh 22%, Marburg entry inh 10%, SARS PLP yeast 0%, RE007 growth inh 2% and Lassa entry inh 17%.
Screening CSc1ccc(-c2nnn(Cc3ccc(C)cc3)n2)cc1 returned StopGo reporter 19%, Cruzain Triton 0.8%, NS1 inh -8%, Marburg entry inh inconclusive, Cruzain noTriton -4%, SARS PLP yeast 1%, RE007 growth inh 8% and Lassa entry inh -23%.
CC(C)Nc1nc(Cl)nc(NNC(=O)C(C)Oc2ccccc2)n1 (stereo not given) was read as StopGo reporter -13%, Cruzain Triton 3.0%, NS1 inh -4%, Marburg entry inh -29%, Cruzain noTriton -8%, SARS PLP yeast -2%, RE007 growth inh 12% and Lassa entry inh -4%.
`CC1CN(Cc2ccc(Cl)cc2Cl)CC(C)O1` (stereo not given) gave StopGo reporter 54%[activator], Cruzain Triton 3.0%, NS1 inh 2%, Marburg entry inh 14%, Cruzain noTriton 7%, SARS PLP yeast -1%, RE007 growth inh 1% and Lassa entry inh 12%.
Screening COc1ccc(CNc2ccc3c(c2)CCC3)cc1Br returned StopGo reporter 17%, NS1 inh 6%, SARS PLP yeast -1% and RE007 growth inh -10%.
Screening CCCC(=O)NCC(c1ccc2c(c1)OCO2)N1CCN(c2ccccc2)CC1 (stereo not given) returned StopGo reporter -23%, Cruzain Triton -0.2%, Cruzain noTriton -12% and Lassa entry inh -8%[46.1 µM].
For CCOc1ccc(Nc2ncnc3c2cnn3-c2ccccc2)cc1 the results were StopGo reporter 6%, Cruzain Triton -2.6%, NS1 inh -39%, Cruzain noTriton -3%, SARS PLP yeast 2% and RE007 growth inh 3%.
Screening O=C(NCCC1CCCCN1S(=O)(=O)c1ccccc1)C(=O)NCc1cccnc1 (stereo not given) returned StopGo reporter -7%, Marburg entry inh 18%, SARS PLP yeast 0%, RE007 growth inh -6% and Lassa entry inh -3%.
Screening COc1ccc(C(=O)Oc2c(Sc3ccc(C)cc3)c(C)nn2C(C)(C)C)c(OC)c1 returned StopGo reporter inconclusive, Cruzain Triton -3.2%, Marburg entry inh inconclusive, Cruzain noTriton 7% and Lassa entry inh inconclusive.
`CCC(C)c1ccc(NC(=S)N2CCN(S(C)(=O)=O)CC2)cc1` (stereo not given) gave StopGo reporter 9%, NS1 inh -4%, Marburg entry inh -16%[46.1 µM], SARS PLP yeast -2%, RE007 growth inh -6% and Lassa entry inh inconclusive.
For Oc1c(C(c2ccccc2F)N2CCCC2)sc2nc(-c3ccco3)nn12 (stereo not given) the results were StopGo reporter 27%, Cruzain Triton -0.5%, Cruzain noTriton inconclusive and Lassa entry inh 16%[46.1 µM].
For CC(Sc1nc(-c2ccc(F)cc2)cs1)C(=O)Nc1ccc(Cl)cn1 (stereo not given) the results were StopGo reporter -11%, Cruzain Triton -8.7%, NS1 inh -3%, Marburg entry inh inconclusive, Cruzain noTriton -19%, SARS PLP yeast -5%, RE007 growth inh 2% and Lassa entry inh -12%.
O=C(/C=C/c1cccs1)NCc1ccc2c(c1)OCO2 was read as StopGo reporter 25%, NS1 inh 4%, Marburg entry inh 12%, SARS PLP yeast 0%, RE007 growth inh 10% and Lassa entry inh inconclusive.
`CCc1ccc(OCC2Cn3c(nc4c3c(=O)[nH]c(=O)n4C)O2)cc1` (stereo not given) gave StopGo reporter -16%, NS1 inh 19%, SARS PLP yeast 1% and RE007 growth inh 1%.
COc1ccc(CNC(=O)C[C@H]2C(=O)N(C3CCCCC3)C[C@@H]2Cc2ccccc2)cc1 was read as StopGo reporter -2%, NS1 inh 22%, SARS PLP yeast -5% and RE007 growth inh 3%.
Screening COc1cccc(C2C(C(=O)c3cccs3)=C(O)C(=O)N2CCCn2ccnc2)c1OC (stereo not given) returned Cruzain Triton 0.3%, NS1 inh 12%, Cruzain noTriton -1% and SARS PLP yeast 5%.
CCN1CCN(c2ccc(NC(=O)c3ccc(F)cc3)cc2Cl)CC1 was read as StopGo reporter 0%, Marburg entry inh inconclusive, SARS PLP yeast 5%, RE007 growth inh 13% and Lassa entry inh -14%.

Source: PubChem (National Center for Advancing Translational Sciences (NCATS))

This is a random part of the collection; overall some 4.7% were active at least once.
